HPGD inh: qHTS Assay for Inhibitors of HPGD (15-Hydroxyprostaglandin Dehydrogenase); purified HPGD, NADH fluorescence kinetic, PGE2 substrate; 150,000 compounds, 4.3% hits; Potency, µM, inactives show at the highest dose activity change, negative = inhibition, usual class: inhibitors; 15-hydroxyprostaglandin dehydrogenase [NAD(+)] (Homo sapiens), P15428; AID 894, 2007; active = well fitted inhibition curve with a large enough effect (not every such curve was filed as active); inconclusive = small, poorly fitted or top-dose-only effect, or another doubt; inactive = no such curve, though single readings can be large or run the other way;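 further: top concentration of the series not given in the record; plate controls included wells without enzyme; inactives centre near -10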
Target sequence (P15428 whole entry, looked up): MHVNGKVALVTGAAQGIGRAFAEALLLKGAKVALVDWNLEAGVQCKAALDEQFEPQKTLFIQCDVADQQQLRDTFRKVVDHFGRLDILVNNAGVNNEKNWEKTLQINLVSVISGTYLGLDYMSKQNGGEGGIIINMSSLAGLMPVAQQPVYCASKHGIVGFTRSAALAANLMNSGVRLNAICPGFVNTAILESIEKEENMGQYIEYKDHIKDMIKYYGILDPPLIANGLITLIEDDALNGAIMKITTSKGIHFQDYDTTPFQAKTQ
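20 nM HPGD preincubated 15 min at room temperature with compound in 50 mM Tris-HCl pH 8, 0.01% Tween 20. Started with 1 mM NAD+ and 30 uM prostaglandin E2; NADH fluorescence (360/450 nm) read 5 times over 30-s intervals, last minus first.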
* marks the source's active call; other numbers are inactive results; ? = inconclusive. On the % scale 0 is the no-effect control and ±100 the full control effect; potency means the concentration at half of the fitted maximal effect.

| Structure | HPGD inh |
| --- | --- |
| O=C(N/N=C/C=C\c1ccccc1[N+](=O)[O-])c1cccs1 | -5.0% |
| Cc1ccn(C(=O)c2cc3c(C)nn(-c4ccccc4)c3s2)n1 | ? |
| CCOC(=O)c1c(-c2ccc(Cl)cc2)c(C#N)c(=O)n(N)c1N | ? |
| CCn1c(C(=O)N2CCC(C(=O)NCc3cccs3)CC2)cc2sccc21 | -3.6% |
| CCCC1=C([O-])C2N=CC=CC2=[N+](c2ccccn2)C1=O (configuration not stated) | -1.9% |
| CCOC(=O)c1ccccc1NC(=S)N1CCC(C)CC1 | -3.4% |
| Cc1ccc(-n2c(C)cc(C)c(C#N)c2=O)cc1 | -14.8% |
| O=C(CS(=O)(=O)c1c[nH]c2ccccc12)N1CCCCC1 | -4.1% |
| COc1ccc(C2CC(=O)CC(=O)C2n2cncn2)cc1 (configuration not stated) | -1.6% |
| Cc1ccc(Sc2ncccc2C(=O)NC2CCCCCC2)cc1C | -5.7% |

Four successive entries out of the list so far, quoted:
| Structure | HPGD inh |
| --- | --- |
| Cc1ccc(-n2c(C)cc(C)c(C#N)c2=O)cc1 | -14.8% |
| O=C(CS(=O)(=O)c1c[nH]c2ccccc12)N1CCCCC1 | -4.1% |
| COc1ccc(C2CC(=O)CC(=O)C2n2cncn2)cc1 (configuration not stated) | -1.6% |
| Cc1ccc(Sc2ncccc2C(=O)NC2CCCCCC2)cc1C | -5.7% |

Following part:
| Structure | HPGD inh |
| --- | --- |
| Cc1ccc2nsnc2c1S(=O)(=O)N1CCOCC1 | -19.4% |
| COc1ccc(OC)c(S(=O)(=O)N2c3ccccc3CC2C)c1 (configuration not stated) | -7.2% |
| CC(C)(O)C(=O)O | -10.5% |
| CCCOc1ccc(/C(O)=C2/C(=O)C(=O)N(CCN(C)C)C2c2ccco2)cc1 (configuration not stated) | -13.2% |
| Oc1c(Br)cc(Br)cc1CN(Cc1cc(Br)cc(Br)c1O)C1CCCCC1 | -14.5% |
| COc1ccc(-c2ccc(Nc3ccc(C(=O)N4CCOCC4)cc3)nn2)cc1OC | 17.8µM* |
| CN1CCCC(CC2Oc3ccccc3Sc3ccccc32)C1 (configuration not stated) | -4.4% |
| COc1ccc(-n2c(N)c(Br)c(=O)[nH]c2=O)cc1 | -6.4% |
| Cn1c(CCNC(=O)c2ccc(Cl)cc2)n[nH]c1=S | -8.5% |
| CCOC(=O)c1c(NC(=O)C(F)(OC)C(F)(F)F)sc(C(=O)N2CCCCC2)c1C (configuration not stated) | -11.1% |
| Cc1ccc(S(=O)(=O)NCC(=O)N(CC(=O)NCc2ccco2)Cc2ccc3c(c2)OCO3)cc1 | -24.7% |
| COc1ncc2nc(-c3ccccc3)c(=O)n(C[C@H]3CCCO3)c2n1 | ? |
| O=C1NC(=O)/C(=C\c2ccccc2OCc2ccc([N+](=O)[O-])cc2)N1 | -3.2% |
| Cc1ccsc1/C=N/NC(=O)c1cccc(S(=O)(=O)Nc2ccccc2Cl)c1 | -10.2% |
| Cc1ccc(-c2csc(NC(=O)CSc3nc(C)cc(=O)[nH]3)n2)cc1 | 28.2µM* |
| C/C(=C/C(=O)N1CCN(C)CC1)C(=O)O | 4.4% |
| CCCCCC(C)N (configuration not stated) | -12.2% |
| COc1ccc(C2C(=O)N(C3CCCCC3)CC(=O)N2Cc2ccc3c(c2)OCO3)cc1 (configuration not stated) | -6.3% |
| COc1ccccc1C1CN(c2ccccc2)N=C1c1cccs1 (configuration not stated) | ? |
| CCOc1ccc(-c2n[nH]c(=S)n2/N=C/c2cc3c(cc2[N+](=O)[O-])OCO3)cc1 | 3.55µM* |
| Cc1cc(N2CCN(S(=O)(=O)c3ccc4c(c3)OCCO4)CC2)n2ncnc2n1 | ? |
| COC(=O)c1cc(NC(=O)Nc2ccccc2)ccc1Cl | -15.1% |
| Cc1cccc(-n2c(SCC(N)=O)nnc2-c2ccccn2)c1C | -10.6% |
| Cc1cnc(NC(=O)CSc2nnc(-c3ccncc3)n2C2CCCCC2)s1 | -14.9% |
| COc1ccc(CNc2nc(SC)n[nH]2)cc1OC | -3.0% |
| CCOC(=O)c1c2n(c3ccc(O)cc13)CCCCC2 | -27.5% |
| O=C(CON=C1c2ccccc2-c2ccccc21)NC12CC3CC(CC(C3)C1)C2 | ? |
| COc1ccccc1CN1CC2(CCN(C(=O)c3cccc(F)c3)CC2)C1 | -13.4% |
| O=C(CN(c1ccc(Cl)c(C(F)(F)F)c1)S(=O)(=O)c1ccccc1)N/N=C/c1cccc2c1OCCO2 | ? |
| O=C(CCC1N=C2c3ccccc3N=C(SCc3ccc(F)cc3)N2C1=O)NCc1ccco1 (configuration not stated) | ? |
| Cc1ccc2nc(NC3=NCN(Cc4ccccc4)CN3)nc(C)c2c1 | -11.8% |
| O=C(CCNS(=O)(=O)c1c(Cl)cccc1Cl)OCC(=O)c1ccccc1 | -7.3% |
| COc1ccc2c(c1)C1CC(C)(NC(=O)C1C(=O)c1ccccc1)O2 (configuration not stated) | -15.3% |
| O=[N+]([O-])c1ccccc1CCO | -7.4% |
| COC(=O)c1ccc(S(=O)(=O)c2ccccc2)c(N)c1 | ? |
| COc1ccc(S(=O)(=O)CCC(=O)N2c3ccccc3CC2C)cc1 (configuration not stated) | 3.6% |
| COc1ccc(OC)c(S(=O)(=O)N2CCC(C(=O)N3CCN(Cc4ccccc4)CC3)CC2)c1 | -2.6% |
| Cc1ccc(-c2cn(S(=O)(=O)c3ccc(C)cc3)nc2N)cc1 | -5.7% |
| CCCCc1ccc(NC(=O)CC(C)=O)cc1 | -5.2% |
| CC(C)(C)Nc1nc(NN)nc(NC(C)(C)C)n1 | 1.6% |
| O=C1c2ccccc2C(=O)N1c1cccc2cccnc12 | -9.4% |
| CC(=O)N1C(=O)C2(C(C#N)=C(N)Oc3c2c(C)nn3-c2ccccc2)c2ccccc21 (configuration not stated) | -14.3% |
| O=C(Nc1ccccc1N1CCCC1)c1ccco1 | -10.6% |
| CCc1nnc(NC(=O)c2cccc(S(=O)(=O)N3CCN(c4ccccc4)CC3)c2)s1 | -19.4% |
| O=C(Nc1nccs1)c1ccc(S(=O)(=O)NCC2CCCCC2)cc1 | -14.2% |
| COc1ccccc1-c1c(C)nn2c(C)c(C(C)=O)cnc12 | -2.7% |
| COc1cccc(C(=O)N2CCCc3ccccc32)c1 | -8.3% |
| COc1ccc(C(C)(C)C)cc1NC(=O)c1cc(S(=O)(=O)N(C)C)ccc1N1CCCC1 | -17.7% |
| COc1cc(/C=N/NC(=O)c2cc(-c3ccccc3)n[nH]2)cc(OC)c1OC | ? |
| O=C(CCCC(=O)OCC(=O)c1ccc(Cl)cc1Cl)Nc1cc(C(F)(F)F)ccc1Cl | -21.0% |

Following part
| Structure | HPGD inh |
| --- | --- |
| CCOC(=O)C1C(=O)NC(N2CCN(CC)CC2)=NC1c1ccccc1 (configuration not stated) | -0.3% |
| CCOc1cc(C(=O)Nc2ccc3c(c2)OCO3)ccc1OC(F)F | -6.5% |
| O=C(COC(=O)C(O)c1ccccc1)c1ccc2c(c1)OCCO2 (configuration not stated) | -12.6% |
| OC(COC(c1ccc(F)cc1)c1ccc(F)cc1)CN1CCc2ccccc2C1 (configuration not stated) | -4.4% |
| CCOc1cc(S(=O)(=O)Nc2ccc(Cl)cn2)ccc1Cl | -0.3% |
| CCOc1ccc(-n2c(=S)sc3c(=O)[nH]c(SCC(=O)N4CCC(C)CC4)nc32)cc1 | -11.2% |
| N#Cc1c(-c2ccccc2)ccnc1Oc1ccccc1 | -28.7% |
| Cc1cc(-n2nc(C)cc2C)nc(NS(=O)(=O)c2ccccc2Cl)n1 | -8.5% |
| N=C1C(c2ccccc2)=C(O)C2CCc3ccccc3N12 (configuration not stated) | 15.8µM* |
| O=C(CN1CCN(c2ncccn2)CC1)N(Cc1ccccc1)c1ccc(F)cc1 | -1.2% |
| CCCCC(NS(=O)(=O)c1ccc(OC)cc1)C(=O)O (configuration not stated) | -7.9% |
| CC1CCc2c(sc3nc(CN4CCOCC4)nc(NS(=O)(=O)c4cccc([N+](=O)[O-])c4)c23)C1 (configuration not stated) | -10.8% |
| C=CCn1c(-c2cc(Cl)ccc2OC)n[nH]c1=S | ? |
| COc1cc(/C=C/C(=O)c2ccc(NS(=O)(=O)c3ccc(C)cc3)cc2)ccc1OC(F)F | 15.8µM* |
| O=C(COC(=O)COc1ccc(Br)cc1)NCCC1=CCCCC1 | -12.2% |
| CC(=O)Nc1nonc1-c1ccccc1 | -7.0% |
| CN(CC(=O)NC(=O)NCc1ccco1)Cc1nc2ccccc2c(=O)[nH]1 | -14.7% |
| COc1ccc(N/N=C(/N=Nc2nc(C)cc(=O)[nH]2)c2ccccc2)cc1 | -14.4% |
| CCOc1ccc(-c2nnn(CC(=O)NCc3cccs3)n2)cc1 | -6.2% |
| COC(=O)c1nnc(SC)nc1C(=O)OC | -3.5% |
| O=C1C=C(NCCO)C(=O)c2cnccc21 | -8.4% |
| CCOC(=O)CSC1=C(C#N)C(c2ccco2)C(C(=O)OCc2ccccc2)=C(C)N1 (configuration not stated) | -22.5% |
| CCN(CC)S(=O)(=O)c1ccc(NC(=O)c2ccc(N(C)S(C)(=O)=O)cc2)cc1 | -5.1% |
| COc1cccc(-n2c(CN3CCN(c4cccc(C)c4)C(C)C3)nc3ccc([N+](=O)[O-])cc3c2=O)c1 (configuration not stated) | -8.4% |
| CCCCN(CCCC)CC1OCc2ccccc2CO1 | 2.9% |
| Cc1ccc(/C=N/Nc2ccnc3cc(Cl)ccc23)c(C)c1 | -28.7% |
| O=C(Nc1nc(-c2ccccc2)c(C(=O)c2ccccc2)s1)c1ccc(S(=O)(=O)N2CCCCC2)cc1 | -18.1% |
| NC1(C(=O)O)C[C@H](C(=O)O)[C@H](C(=O)O)C1 (some centres not stated) | 2.4% |
| COc1ccc(Nc2nc(-c3cccs3)cs2)c(OC)c1 | -2.5% |
| CCn1ncc(C2=NOC(C(=O)Nc3ccccc3C(=O)OC)C2)c1C (configuration not stated) | -14.8% |
| CCN(C(=O)CN1CCN(S(=O)(=O)c2cc(Cl)ccc2Cl)CC1)c1c(N)n(Cc2ccccc2)c(=O)[nH]c1=O | -2.9% |
| O=C1CCCC2=C1C(c1ccccn1)Nc1ccc(C(=O)c3ccccc3)cc1N2 (configuration not stated) | -10.9% |
| O=c1c2ccccc2nc(SCc2cc(F)ccc2F)n1C1CCCC1 | -14.4% |
| O=C(/C=C/c1ccccc1)NNC(=O)c1cccnc1 | -4.5% |
| COc1ccc(C(=O)NCc2cccnc2)cc1 | -10.7% |
| Cc1cc(C)nc(NC(=O)c2ccc(Cl)cc2[N+](=O)[O-])c1 | -8.9% |
| COCCCNC(=O)CCCOc1ccccc1 | 14.1µM* |
| COc1ncnc2c1N=C1CC(C)(C)CC(N)=C1S2 | -4.9% |
| CC1CC(C)CN(C(=O)CCNS(=O)(=O)c2cccs2)C1 (configuration not stated) | -9.9% |
| Cn1c(Nn2cnnc2)nc2ccccc21 | -11.2% |
| O=S(=O)(N/N=C\c1cccn1-c1ccccc1)c1ccc2ccccc2c1 | -7.4% |
| CC(C)C(NC(=O)/C=C/c1cccc([N+](=O)[O-])c1)C(C)C | -4.4% |
| COc1ccc(C(=O)Nc2ccc(Cl)cc2C(=O)NCc2ccco2)cc1OC | ? |
| COc1cc(CNC2CCCc3ccccc32)cc(OC)c1OC (configuration not stated) | 2.2% |
| O=S(=O)(c1ccc(OCc2nc3ccccc3s2)c(Cl)c1)N1CCOCC1 | -15.0% |
| N/C(CCN1CCCCC1)=N/O | -5.1% |
| COc1cc(C(=O)OC(C)C(=O)NCC2CCCCC2)cc(NC(=O)c2ccco2)c1OC (configuration not stated) | -29.1% |
| Cc1cc(C(=O)NCC(=O)OCC(=O)N(C)C2CCCCC2)ccc1[N+](=O)[O-] | -5.6% |
| COc1nccnc1NS(=O)(=O)c1ccc(NC(=S)NC(=O)c2ccccc2)cc1 | -13.9% |
| COc1ccc(-c2c(C)nc(N)nc2-c2ccc(OCc3ccc(C)cc3)cc2O)cc1OC | ? |

The list continues.
| Structure | HPGD inh |
| --- | --- |
| COc1ccc(/C=C/C(=O)c2ccc3c4c(cccc24)CC3)cc1OC | -20.9% |
| Cc1ccc(C(=O)CC2(O)C(=O)N(Cc3ccccc3)c3ccccc32)o1 (configuration not stated) | -12.2% |
| CC(C)OC(=O)CSc1nc2c(c(C3CC=CCC3)c1C#N)CCC2 (configuration not stated) | -6.3% |
| O=C(O)CC1S/C(=N/N=C2CCCCC2)N(c2ccccc2)C1=O (configuration not stated) | -5.4% |
| CCOC(=O)N1CCN(c2cc3nccnc3cc2F)CC1 | -9.2% |
| CCC(=O)Nc1ccc(C(=O)n2nc(C)cc2C)cc1 | -14.8% |
| CCOC(=O)c1c(NC(=O)C2C3C=CC(C3)C2(C)C(=O)O)sc2c1CCCC2 (configuration not stated) | -1.7% |
| O=C(NCc1cccs1)c1ccccc1F | 20µM* |
| Cc1ccc(/C=N\NC(=O)c2cc(OCC(F)(F)F)ccc2OCC(F)(F)F)cc1 | -5.2% |
| COc1ccccc1-c1cc(C(F)(F)F)nc(S(=O)(=O)CCCC(=O)N2CCOCC2)n1 | 14.1µM* |
| COc1cccc(C(=O)Oc2ccccc2/C=C\C(=O)c2cc3ccccc3o2)c1 | -29.8% |
| CCOC(=O)Nc1ccc(C)cc1C | -3.6% |
| C#CCOc1ccc(/C=C2\SC(=S)N(Cc3cccnc3)C2=O)cc1 | -3.5% |
| COc1ccc(CNS(=O)(=O)c2ccc(C3CNC(=O)C3)cc2)cc1 (configuration not stated) | -5.5% |
| NC(=O)CSc1nnnn1-c1ccc(OC(F)(F)F)cc1 | -8.7% |
| COc1nc(N)nc(N2CCOCC2)n1 | -0.6% |
| Cc1c(C(N)=O)sc2nc(-c3ccccc3)cn12 | -10.9% |
| COc1ccc(-c2ccc(/C=C3/C(=N)N4C=CSC4=NC3=O)o2)c([N+](=O)[O-])c1 | ? |

Screening results deposited in PubChem BioAssay by National Center for Advancing Translational Sciences (NCATS).

An excerpt; the hit share may differ from the screen's.
